Bioassay records deposited in PubChem BioAssay by National Center for Advancing Translational Sciences (NCATS).
LASV entry inh – Lassa virus entry inhibition; Lassa virus pseudotype entry inhibition, cell reporter; control for the full effect not named in the record; Potency, µM (highest dose often 37.9 µM), without a hit: at the highest dose activity change, negative = inhibition, actives largely listed as inhibitors; 1.2% of 300,000 active; AID 540256; active means well fitted inhibition curve with a large enough effect; inconclusive means small, poorly fitted or top-dose-only effect, or effect the other way; inactive means flat fitted curve, though single readings scatter; tested in HEK293 cells; note: % is set by controls: 0 for no effect and ±100 for the full control effect; nearly all actives have a fitted effect of over 50% in size; luciferase read-out
SARS PLP yeast – SARS-CoV PLP inhibition in yeast; S. cerevisiae expressing SARS-CoV PLpro, growth rescue; control for the full effect not named in the record; Potency, µM (doses to about 32.9 µM), for the others: at the highest dose activity, positive = growth rescue; 0.19% of 330,000 active; note: 0% is about no effect; nearly all actives have a fitted effect of over 55% in size; growth read by luminescence after 48 h
Cruzain inh Det – inhibitors of Trypanosoma cruzi cruzain with detergent; Potency, µM, for the others: max response, negative = inhibition, most hits filed as inhibitors; 0.43% of 200,000 active; AID 1478; purified cruzain, Z-FR-AMC fluorescence, 0.01% Triton; active = well fitted curve in the direction sought with a large enough effect; inconclusive = small, poorly fitted or top-dose-only effect, or another doubt; inactive = no such curve, though single readings can be large; an effect the other way counts as inactive or inconclusive;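 note: plate controls were neutral wells for no effect and buffer without enzyme for full effect; nearly all actives have a fitted effect of over 40% in size; top concentration of the series not given in the record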
Target sequence (P25779 123-467 limits assumed): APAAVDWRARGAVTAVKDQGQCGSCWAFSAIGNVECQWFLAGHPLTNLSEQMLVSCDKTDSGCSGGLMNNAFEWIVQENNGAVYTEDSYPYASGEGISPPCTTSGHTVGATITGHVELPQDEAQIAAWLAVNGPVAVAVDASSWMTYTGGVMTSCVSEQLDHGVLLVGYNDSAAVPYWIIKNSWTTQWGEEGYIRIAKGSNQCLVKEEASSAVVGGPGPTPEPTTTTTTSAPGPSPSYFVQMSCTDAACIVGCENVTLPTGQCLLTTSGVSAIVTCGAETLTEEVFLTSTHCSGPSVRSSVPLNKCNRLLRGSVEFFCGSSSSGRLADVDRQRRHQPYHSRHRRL
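In this qHTS format, compounds are incubated with 1.5 nM cruzain for 15 min at room temperature before 2 uM Z-FR-AMC is added. Release of AMC is followed at 360/450 nm, and progress is taken as the 60 s fluorescence difference.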
RE007 growth inh – less growth of the S. pombe RE007 Vpr strain; 0.21% of 360,000 active; Potency, µM (top dose mostly 92.2 µM), inactives show top-dose activity change, negative = less growth; S. pombe RE007 Vpr strain, BacTiter-Glo ATP luminescence, 24 h; control for the full effect not named in the record; AID 651644; active = well fitted falling curve with a large enough effect; inconclusive = small, poorly fitted or top-dose-only effect; inactive = no such curve, though single readings can be large or run the other way;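 note: % is set by controls: 0 for no effect and ±100 for the full control effect; nearly all actives have a fitted effect of over 50% in size; the assay follows cell death caused by Vpr and the record does not say whether a fall means rescue or toxicity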
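Fission yeast RE007 carrying one integrated HIV-1 vpr copy, seeded at OD 0.01 in PMG+AL medium with 23 nL pinned compound. Grown 24 h at 30 degrees; viability read by BacTiter-Glo luminescence after 5 min.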
NS1 function inh – blocks influenza NS1 protein function; S. cerevisiae slowed by influenza A NS1, growth recovery by OD600; Potency, µM (series often up to 46.1 µM), for inactives: at the highest dose activity, positive = more growth; 0.4% of 270,000 active; AID 2326; note: actives are rising curves; nearly all actives have a fitted effect of over 50% in size
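Compounds were scored for reversing the slow growth caused by influenza A NS1 in S. cerevisiae, measured by optical density at 600 nm. Assay medium contained 2% galactose at pH 6.0; NS1-free yeast of the same strain were the positive control.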
2A StopGo – FMDV 2A StopGo reporter, luciferase signal; human cells with a luciferase reporter of 2A StopGo recoding; control for the full effect not named in the record; Potency, µM (series often up to 57.9 µM), inactives show top-dose signal change, negative = less light; 1.2% of 410,000 active; AID 1159524; active = well fitted falling curve with a large enough effect; inconclusive = small, poorly fitted or top-dose-only effect; inactive = no such curve, though single readings can be large or run the other way; tested in HEK293T cells; note: % is set by controls: 0 for no effect and ±100 for the full control effect; nearly all actives have a fitted effect of over 45% in size; luciferase light after 4 h
Cruzain noTriton – inhibitors of Trypanosoma cruzi cruzain without detergent. 2.3% of 200,000 active. Potency, µM, without a hit: max response, negative = inhibition, hits mostly inhibitors. purified cruzain, Z-FR-AMC fluorescence, no detergent. P25779; active = well fitted curve in the direction sought with a large enough effect; inconclusive = small, poorly fitted or top-dose-only effect, or another doubt; inactive = no such curve, though single readings can be large; an effect the other way counts as inactive or inconclusive;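 note: plate controls were enzyme without inhibitor for no effect and buffer without enzyme for full effect; nearly all actives have a fitted effect of over 40% in size; top concentration of the series not given in the record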
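Detergent-free condition (0.00005% Triton X-100) in acetate buffer pH 5.5 with DTT. 1.5 nM enzyme and compound were pre-mixed 15 min, then 2 uM Z-FR-AMC substrate added; reaction progress from fluorescence change between first and third reads (60 s).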
MARV entry inh – Marburg virus entry inhibition | Marburg virus pseudotyped entry inhibition, cell reporter; control for the full effect not named in the record; about a third of the inactives were read at about 46 µM | Potency, µM (doses to about 37.8 µM), without a hit: top-dose activity change, negative = inhibition, most hits filed as inhibitors | 1.8% of 300,000 active; active = well fitted inhibition curve with a large enough effect; inconclusive = small, poorly fitted or top-dose-only effect, or effect the other way; inactive = flat fitted curve, though single readings scatter; tested in HEK293 cells; about a fifth of its hits are not listed in these tables; note: % is set by controls: 0 for no effect and ±100 for the full control effect; luciferase read-out
* hit, by the source's call; ? = inconclusive; . = not tested or not shown; & = joins results of further samples; [ ] = another dose, or the depositor's remark. Unless noted, calls come from the whole dose curve; as a rule, active means well fitted rising curve with a large enough effect; inconclusive means small, poorly fitted or top-dose-only effect; inactive means no such curve, though single readings can be large or run the other way. Potency is the fitted concentration of half-maximal effect.

Compound	LASV entry inh	SARS PLP yeast	Cruzain inh Det	RE007 growth inh	NS1 function inh	2A StopGo	Cruzain noTriton	MARV entry inh
O=S(=O)(Nc1cccc(Cl)c1)c1ccc2oc(=S)[nH]c2c1	-15%	0%	.	18%	.	40%[activator]	.	-10%[14.2 µM]
Cc1ccc2nc(SC(C)C(=O)N3CCOCC3)[nH]c2c1 (stereo not given)	1%	5%	.	-6%	.	55%[activator]	.	-1%[46.1 µM]
COc1cc2[nH]c(=S)n(CCN3CCCCC3C)c(=O)c2cc1OC (stereo not given)	4%	0%	-2.4%	-2%	-5%	-18%	-12%	1%
O=C(NCc1ccc(F)cc1)c1cnc2n(c1=O)CCS2	.	-2%	6.0%	-3%	1%	-9%	0%	.
O=C(NCc1ccccc1)C12CC3CC(CC(Br)(C3)C1)C2	-15%[46.1 µM]	0%	.	20%	15%	3%	.	?
Cc1ccn2c(Nc3ccc4c(c3)OCO4)c(-c3ccco3)nc2c1	-9%[46.1 µM]	.	-19%	.	.	40%[activator]	?	?
O=C(COC(=O)CCSc1ccc(Cl)cc1)Nc1ccc(F)cc1	26%	-5%	-27%	-14%	-8%	5%	-26%	-1%
CC(=O)C1=C(C)NC(SCC(=O)Nc2nc3ccccc3s2)=C(C#N)C1c1ccc(Cl)cc1 (stereo not given)	-12%	7%	-3.8%	3%	?	?	?	-21%
COc1ccc(C2c3[nH]c4ccccc4c3CCN2C(=O)c2cn3ccccc3n2)c(F)c1 (stereo not given)	?	0%	.	11%	14%	14%	.	?
O=C(CCN(CCO)Cc1ccccc1)Nc1ccc(Br)cc1	3%	-3%	1.9%	-5%	?	2%	-2%	-23%
CCCCCC(=C/c1ccccc1)/C=N/Nc1ccc(S(=O)(=O)N2CCOCC2)cc1[N+](=O)[O-]	-21%[46.1 µM]	.	.	-5%	.	-13%	.	?
CCCc1nnc(SCC(=O)Nc2nnc(CC)s2)n1CC1CCCO1 (stereo not given)	-1%	1%	.	-5%	-2%	12%	.	1%[46.1 µM]
Cc1cc(N2CCCC(C(=O)Nc3cccc(Cl)c3)C2)n2ncnc2n1 (stereo not given)	6%	0%	.	-5%	-1%	-25%	.	-22%
Cc1ccc(OCC(=O)NNC(=O)CCC(=O)Nc2ccc(C)cc2C)cc1	0%	3%	1.7%	15%	-13%	-17%	3%	11%
O=C(CCCc1ccccc1)NCCS(=O)(=O)N1CCN(c2ccccc2F)CC1	7%	-2%	.	-8%	.	14%	.	1%
C=CCNC(=O)C(C)N1C(=O)c2ccccc2C1=O (stereo not given)	0%	5%	-0.3%	6%	?	17%	-11%	1%
Cc1ccc(NC(=O)Cn2nnc(C(=O)NCc3ccco3)c2N)c(C)c1	.	3%	.	-6%	20%	0%	.	.
O=S(=O)(Nc1ccc(S(=O)(=O)N2CCCC2)cc1)c1ccc(F)cc1F	-15%	19%	.	-14%	.	0%	.	?
CCn1c(-c2nn(-c3ccccc3)ccc2=O)n[nH]c1=S	12%[46.1 µM]	2%	.	2%	1%	-14%	.	0%[46.1 µM]
CC(=O)NCC(=O)N(C)C(C(=O)Nc1ccc(C(C)C)cc1)c1ccccc1 (stereo not given)	10%	-6%	1.4%	13%	-3%	19%	?	2%
O=[N+]([O-])c1cccc(N(CC(O)CN2CCCC2)S(=O)(=O)c2ccccc2)c1 (stereo not given)	11%[46.1 µM]	3%	.	4%	14%	5%	.	-26%[46.1 µM]
CCOc1cc(S(=O)(=O)NCCN2CCOCC2)c(C)cc1C	-8%	3%	1.9%	-1%	-12%	73%[activator]	9%	-20%
CNc1ncnc(Sc2nc(N)nc3nc[nH]c23)c1[N+](=O)[O-]	2.5µM*	.	4.1%	12%	0%	?	5%	?
N#C/C(=C\c1ccc[nH]1)C(=O)NC1CC1	10%	-8%	-2.8%	-12%	3%	.	0%	5%
O=S(=O)(Cc1ccccc1)Oc1ccccc1	23%[46.1 µM]	3%	.	0%	3%	-2%	.	27%[46.1 µM]
COc1ccc(CNC(=O)c2cc3c(s2)CN(Cc2ccccc2)C3)cc1	?	1%	.	-5%	.	-7%	.	27%[46.1 µM]
Cc1onc(-c2ccccc2)c1C(=O)Nc1sc2c(c1C(N)=O)CCC2	0%	-13%	-15%	-7%	-5%	-7%	-5%	?
O=C(O)CSc1cc(NS(=O)(=O)c2ccc(Cl)cc2)c2ccccc2c1O	?	-12%	.	?	-40%	?	.	?
O=C(CSc1nc2ccccc2c(=O)n1Cc1ccc(C(=O)NC2CC2)cc1)NCc1ccco1	?	-1%	4.9%	3%[3.69 µM]	?	3%	-9%	-91%
O=C(NCCCO)/C(=C\C=C\c1ccccc1)NC(=O)c1ccccc1Cl	-18%	-19%	-5.8%	3%	-17%	-11%	-12%	?
O=C(c1cnc(Cl)c(Cl)c1)N1CCN(S(=O)(=O)c2ccc3ccccc3c2)CC1	1%	-2%	.	13%	.	?	.	?
CSCCC(NC(=O)c1ccccc1Cl)C(=O)N1CCN(c2ccccn2)CC1 (stereo not given)	-1%	.	.	1%	.	-14%	.	17%
CCn1ccc2c(OCC(=O)Nc3ccc(OC)cc3OC)cccc2c1=O	-29%[46.1 µM]	.	-1.2%	.	.	-20%	?	.
CC(=O)Nc1ccc(-c2csc(N/N=C(/C)c3ccccc3)n2)cc1	?	1%	.	22%	16%	?	.	?
COc1ccc(CCNC(=O)C2CCCN2C(=O)Nc2cccc(C(C)=O)c2)cc1OC (stereo not given)	2%	0%	0.5%	-2%	7%	-14%	22%	0%&28%
CN(C)CCCNc1ccc(-c2cc(Nc3cccc(Cl)c3)ncn2)cn1	.	2%	.	-16%	-1%	-8%	.	.
CN(C)CCCN(C(=O)COc1ccc(Cl)cc1)c1nc2ccc(F)cc2s1	?	-4%	.	-12%	.	-17%	.	?
COc1ccc(C(C)(C)NC(=O)C2CCC(=O)N(CCCN3CCCC3=O)C2)cc1 (stereo not given)	.	-2%	.	-2%	-9%	6%	.	.
CCc1nnc(NC(=O)C(C)N2C(=O)C3C4C=CC(C4)C3C2=O)s1 (stereo not given)	9%	7%	2.9%	-1%	7%	-1%	3%	-4%
COc1ccc(CC(=O)n2[nH]c(=O)cc(C)c2=O)cc1OC	8%	0%	.	-7%	1%	?	.	-8%[46.1 µM]
O=C(COc1ccccc1Br)NC(=O)NC1CCCC1	5%	2%	.	-20%	.	22%	.	?
CS(=O)(=O)N(Cc1ccc(Cl)cc1)c1ccc(C(=O)NCc2ccccn2)cc1	?	2%	.	7%	-93%	-24%	.	?
CCCCCn1c(CN2CCN(CCO)CC2)nc2c1c(=O)n(C)c(=O)n2C	.	9%	-2.0%	-10%	-31%	-24%	-1%	.
CCCc1[nH][nH]c(=O)c1C(c1ccccc1)C(C#N)C#N (stereo not given)	-1%	-4%	1.4%	3%	-7%	-2%	2%	2%
O=C(NC1CC(=O)N(c2ccc3c(c2)OCCO3)C1)N1CCC(O)CC1 (stereo not given)	1%	2%	.	-1%	.	-11%	.	0%
O=C(NC1CC1)C1=C[C@@H](c2c[nH]c3ccccc23)C[C@@H](OCc2ccc(CO)cc2)O1	.	0%	.	2%	-7%	20%	.	.
CCCCN(CC)CCNC(=O)Cn1cnc2sc(C)c(S(=O)(=O)N3CCN(c4ccccc4OC)CC3)c2c1=O	16%[46.1 µM]	.	1.1%	.	.	-20%	-2%	13%[46.1 µM]
CCOC(=O)CSc1n[nH]c(NC(=O)CC)n1	4%	0%	.	21%	-5%	-21%	.	20%[46.1 µM]
COc1ccc(C(=O)C2(C)N(O)C(C)C(c3cccs3)=[N+]2[O-])cc1 (stereo not given)	10%	-6%	7.4%	-5%	18%	28%	-8%	-3%
CCC(Oc1ccccc1)C(=O)N(C)CC(=O)N(CC(C)C)c1c(N)n(CC(C)C)c(=O)[nH]c1=O (stereo not given)	9%	0%	.	-8%	.	-5%	.	-1%
Cc1nc2c3ccccc3nc(NNC(=O)CCC(=O)NCCN3CCN(c4ccccc4)CC3)n2n1	.	-10%	.	10%	0%	-11%	.	.
COc1ccccc1NC(=S)N1CCC(NC(=O)C23CC4CC(CC(C4)C2)C3)CC1	.	1%	.	-12%	1%	?	.	.
Cc1ccc(NC(=O)CN(C)C(=O)/C=C/c2cccs2)cc1	-2%	-3%	-5.3%	-2%	2%	22%	-5%	38%
O=C(/C=C/c1ccccc1)N/C(=C/c1ccccc1)C(=O)Nc1ccccc1O	-10%	-7%	-2.1%	-3%	-5%	3%	-25%	12%
O=C(NCCc1ccc(C(F)(F)F)cc1)C1CCC(=O)N(CCCc2ccccc2)C1 (stereo not given)	.	9%	.	8%	2%	-6%	.	.
Cc1ccc(NP(=O)(Oc2ccccc2F)Oc2ccccc2F)cc1C	1%	-21%	-10%	-8%	-45%	-10%	-11%	?
COc1ccc(NC(C)=O)cc1NC(=O)C1(c2cccs2)CCOCC1	-12%[46.1 µM]	.	1.4%	.	.	-6%	-6%	.
O=C1CCN(c2ncccc2[N+](=O)[O-])CC1	0%	1%	.	13%	.	-3%	.	10%[46.1 µM]
Cc1cccc(NC(=O)CCS(=O)(=O)c2ccccc2)c1	.	0%	.	-13%	0%	55%[activator]	.	.
Cc1ccc(-n2nnnc2SCC(=O)NC2CCS(=O)(=O)C2)c(C)c1 (stereo not given)	1%	4%	.	11%	.	-17%	.	23%[46.1 µM]

More results follow:
Compound	LASV entry inh	SARS PLP yeast	Cruzain inh Det	RE007 growth inh	NS1 function inh	2A StopGo	Cruzain noTriton	MARV entry inh
Cc1cccc(N2CCN(C(=O)CCC(=O)N3CC(C)Oc4ccc(C)cc43)CC2C)c1 (stereo not given)	.	-9%	.	3%	13%	28µM*	.	.
CCOC(=O)c1cc(C(=O)OCC)c(=O)[nH]c1C	18%	-15%	-2.7%	6%	18%	-15%	6%	?
N#Cc1ccc(Cn2ccnc2C(=O)Nc2ccccc2)cc1	-8%[46.1 µM]	-2%	.	-17%	.	1%	.	10%[46.1 µM]
COCCn1c(=S)[nH]c2sc3c(c2c1=O)CCC(C)C3 (stereo not given)	-20%	-5%	.	0%	-4%	-17%	.	15%[46.1 µM]
